Bioassay records (PubChem BioAssay)
Vif A3G – HIV-1 Vif–A3G interaction blockers – biochemical, TR-FRET, GST-Vif 1-94, biotin-A3G peptide, dose response retest, primary screen (AID 1117319). inhibition, %, or IC50 in µM where a hit was titrated. TR-FRET GST-Vif / biotin-A3G peptide binding; higher % means a stronger effect; test concentration not given here; strong numbers were not always called active. 0.57% of 260,000 active;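 active = above the screen mean plus three standard deviations and confirmed in dose response; inconclusive = results disagree or hit not tested in dose response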;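 note: Vif residues 1-94 fused to GST binding biotinylated APOBEC3G peptide 110-148; 0% = full assay without inhibitor and 100% = GST in place of GST-Vif; retest series ran down from 100 µM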
Beta2AR agonist – human beta-2 adrenergic receptor agonism by FAP | Am2.2-beta2AR cells, FAP receptor internalization, flow cytometry; reference of the scale not given here | AID 504454 | 0.43% of 340,000 active | response, % (test concentration not listed);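 active = response above a set limit, near 3 SD of response in nonfluorescent compounds, cut at about 42% in these data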;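 note: stock transfer was 100 nL into about 11 µL; a reference agonist was the positive control; negative values mostly stem from fluorescent compounds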
RanGTP-Imp inh – inhibitors of RanGTP-importin-beta interaction, primary screen, biochemical, FRET, CFP-Ran, YFP-importin-beta, homogeneous | inhibition, % (no concentration beside the values) | AID 2216 | 1.1% of 300,000 active | cell-free CFP-Ran/YFP-importin-beta FRET ratio;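 active = most replicates above 15%; inconclusive = exactly half above 15%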;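 note: 0% = DMSO wells and 100% = Ran loaded with GDP instead of GTP; wells of about 40 µL received 100 nL stock; the first replicate is given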
LANA-H2B inh – blocks KSHV LANA binding to histone H2A/H2B | Q9QR71 | cell-free LANA-H2A/H2B peptide, fluorescence polarization | inhibition, % (no concentration beside the values) | 0.6% of 320,000 active | AID 2629; in the data active = inhibition mostly above about 10%, no sharp cut-off; inactive = mostly below about 6.7%;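 note: stock transfer was 7.5 nL into about 10 µL; 0% = median of vehicle wells and 100% = median of positive control wells; one replicate is shown; the record names a cut of 25% in any replicate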
Target sequence (Q9QR71 whole entry, looked up): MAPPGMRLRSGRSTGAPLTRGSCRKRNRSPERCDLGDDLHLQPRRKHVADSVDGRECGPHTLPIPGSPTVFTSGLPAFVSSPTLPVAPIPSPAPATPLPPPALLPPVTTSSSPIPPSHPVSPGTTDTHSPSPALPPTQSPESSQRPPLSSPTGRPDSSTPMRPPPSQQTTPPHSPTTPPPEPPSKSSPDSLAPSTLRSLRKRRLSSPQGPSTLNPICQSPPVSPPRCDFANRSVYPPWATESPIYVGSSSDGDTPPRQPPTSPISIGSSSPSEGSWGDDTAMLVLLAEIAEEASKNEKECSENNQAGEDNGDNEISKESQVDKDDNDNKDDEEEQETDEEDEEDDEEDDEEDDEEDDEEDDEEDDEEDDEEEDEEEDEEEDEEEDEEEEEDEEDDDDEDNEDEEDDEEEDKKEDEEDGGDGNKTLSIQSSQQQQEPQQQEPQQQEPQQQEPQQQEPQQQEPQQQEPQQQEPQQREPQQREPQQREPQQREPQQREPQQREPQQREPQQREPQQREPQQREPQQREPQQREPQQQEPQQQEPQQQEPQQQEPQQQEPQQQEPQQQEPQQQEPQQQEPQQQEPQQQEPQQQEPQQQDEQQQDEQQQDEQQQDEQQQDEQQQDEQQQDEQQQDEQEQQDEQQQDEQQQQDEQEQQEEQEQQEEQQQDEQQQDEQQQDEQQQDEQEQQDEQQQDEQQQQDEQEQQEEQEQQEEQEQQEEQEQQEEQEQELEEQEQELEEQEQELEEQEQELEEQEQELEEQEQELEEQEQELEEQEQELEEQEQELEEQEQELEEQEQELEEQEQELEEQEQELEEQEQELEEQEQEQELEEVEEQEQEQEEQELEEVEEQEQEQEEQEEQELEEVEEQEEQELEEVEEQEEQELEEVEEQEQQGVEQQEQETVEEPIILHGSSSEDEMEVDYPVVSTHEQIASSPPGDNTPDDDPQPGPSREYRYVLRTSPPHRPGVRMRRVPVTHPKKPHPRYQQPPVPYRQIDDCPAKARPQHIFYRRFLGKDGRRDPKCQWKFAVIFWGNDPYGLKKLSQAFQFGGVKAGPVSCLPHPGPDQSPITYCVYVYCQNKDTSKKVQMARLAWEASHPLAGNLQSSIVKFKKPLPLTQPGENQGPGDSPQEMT
HNF4A DNA FP – change in binding of human HNF4 alpha to DNA; P41235; HNF4a-FITC DNA binding, fluorescence polarization, 1 h; activity change, % at 10 µM; 0.3% of 360,000 active; AID 1224865; in the data active = activity change above about 30%, passing the limit was not always enough;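 note: controls were the assay level and a saturating level of protein; the project sought stronger binding though the title names inhibitors; some compounds called inactive have numbers as strong as hits; positive values seem to mean higher polarization but the record does not say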
ALR H2O2 inh – blocks human ALR sulfhydryl oxidase activity. P55789. purified ALR, DTT oxidation, H2O2 HRP-luminol luminescence. inhibition, % (concentration not given with the values). 3.8% of 290,000 active;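 active = mean and each replicate at 75% or more; inconclusive = only one of the two met; inactive = neither met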;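 note: stock transfer was 7.5 nL into about 7.5 µL; 0% = neutral wells and 100% = wells with inactivated enzyme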
Calb FLC – C. albicans growth modulation with fluconazole | C. albicans CaCi-2 (fluconazole-resistant clinical isolate) + fluconazole, Alamar Blue growth, 48 h | growth inhibition, % (no concentration beside the values) | 0.57% of 300,000 active;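 active = most replicates above 75%; inconclusive = exactly half above 75%; inactive = most below 75%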;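 note: all wells also contain fluconazole at 8 µg/ml as a sub-toxic cotreatment; 0% = median of DMSO wells and 100% = median of geldanamycin control wells; wells of about 8 µL received 7.5 nL stock; the first replicate is given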
Active calls of the source: *; ? = inconclusive; / = no result given.

SMILES	Vif A3G	Beta2AR agonist	RanGTP-Imp inh	LANA-H2B inh	HNF4A DNA FP	ALR H2O2 inh	Calb FLC
O=C(NNc1ccccc1)C(=O)NNS(=O)(=O)c1ccc(CCCl)cc1	?	-4	3.5	-22	0.8	99*	86*
COC(=O)[C@H](C)NC(=O)COc1ccccc1	-4%	-8	-1.5	-0.3	1.1	40	-8
COc1ccc(CN2C[C@H](Cc3ccccc3)[C@@H](CC(=O)Nc3ccccc3)C2=O)cc1	/	-3	-0.3	-1.3	/	2	3
O=C(c1ccc2c(c1)OCO2)C1CCCN(Cc2ccccc2OC(F)F)C1 (centres undefined)	/	9	0.6	9.5	6.6	1	3
COc1ccc(CC(=O)NNC(=O)CCC(=O)Nc2cc(C)ccc2C)cc1	?	1	-1.3	-1.4	-0.7	-2	-21
CCC(C)(C)NC(=O)C(c1ccc(OC)cc1)N(Cc1ccccc1)C(=O)CCC(=O)Nc1cc(C)on1 (centres undefined)	/	62*	1.8	8.4	3.3	/	3
COc1ccc(OC)c(NC(=O)CSc2nc(N3CCOCC3)nc(N3CCOCC3)n2)c1	/	-6	1.0	2.2	1.4	-5	-1
CCC(Oc1ccccc1)C(=O)Nc1ccccn1 (centres undefined)	12%	-3	2.5	-0.6	0.8	-4	-9
COC/C=C/C1=CC2=CC(=O)C(C)(OC(=O)c3cnc4ccccc4n3)C(=O)C2=CN1CC(C)C (centres undefined)	/	-2	?	0.8	-3.7	/	26
COc1cc([N+](=O)[O-])cc(/C=N/NC(=O)Cn2nccc2C)c1O	18%	5	-0.1	-2.3	-4.5	-32	-1
Cn1c(=NC(=O)CS(=O)(=O)c2ccc(F)cc2)sc2ccccc21	-45%	6	0.2	0.2	3.2	-6	2
O=C(NC12CC3CC(CC(C3)C1)C2)c1ccc(-c2ccc(Br)cc2)o1	/	25	5.8	/	-7.0	/	0
Cc1nnc(C)c2c(C)n(-c3cccc4cccnc34)c(C)c12	-1%	/	-2.0	7.9	/	-23	-23
Brc1ccc2c(c1)CNc1c(ncnc1N1CCOCC1)O2	15%	-7	3.1	-1.7	0.3	-2	?
Cc1ccc(C(=O)NNC(=O)CSc2nnc(-c3ccccc3)n2Cc2ccccc2)cc1	16%	-3	3.8	-0.9	-2.7	/	-3
O=C(CC(NC(=O)c1ccccc1Cl)c1ccccc1)NC1=NCCS1 (centres undefined)	-1%	2	-0.9	-6.0	-1.1	-11	7
Cc1cccc(NC(=O)CSc2nc(N)c(NC(=O)c3ccccc3F)c(=O)[nH]2)c1	2%	1	0.6	-4.4	3.7	-21	-1
O=C(NCc1nnc(SCC(=O)N2CCCCCC2)o1)c1ccc(F)cc1	/	-6	1.4	-4.8	-2.4	-12	-7
Nc1ccccc1C#Cc1ccc2[nH]ccc2c1	/	-4	-5.2	4.2	3.0	97*	0
O=S(=O)(Nc1nccs1)c1ccc(Nc2nnc(-c3ccccc3)c3ccccc23)cc1	84µM*	-11	2.3	-0.6	-0.1	-3	15
C/C(=C/c1ccccc1)C(=O)N1CCN(c2ccc(F)cc2)CC1	/	4	-0.8	1.6	-1.9	18	1
OCCC1CN(C/C=C/c2ccco2)CCN1Cc1ccccc1 (centres undefined)	/	-3	3.8	-0.1	-1.1	/	4
Cc1cc(C)n2c(SCCN3C(=O)c4ccccc4C3=O)nnc2n1	-10%	-11	?	-1.5	0.1	-5	-8
CCN1CCN(c2cc(C)c3cc(NC(=S)N4CC(C)CC(C)C4)ccc3n2)CC1 (centres undefined)	-5%	15	3.2	/	2.9	/	4
Cn1c(=O)oc2cc(C(=O)c3ccccc3)ccc21	4%	-1	?	0.2	1.6	-5	-1
O=C(Nc1cc(S(=O)(=O)N2CCOCC2)ccc1N1CCOCC1)c1cnccn1	/	1	0.2	-3.5	3.2	-4	10
Cc1cc(C)c2c(=O)[nH]n(C3CCCCCC3)c2n1	-4%	-11	-2.1	-1.8	-0.5	-3	-19
Cc1onc(-c2ccccc2)c1C(=O)N/N=C/c1ccc(O)c([N+](=O)[O-])c1	-5%	0	-0.5	0.1	-0.6	-1	2
COC(=O)c1cc(C)sc1NC(=S)N1CCN(CCc2ccccc2)CC1	-15%	-8	5.0	-2.9	-3.0	2	-2
COc1ccc(C(=O)Nc2c(C)csc2C(=O)O)cc1	-6%	0	0.6	-3.4	2.4	2	-17
CCOC(=O)Cn1cnc(C)c1	6%	0	/	/	0.7	/	/
O=C(CC1C(=O)NCCN1Cc1cccc(Oc2ccccc2)c1)NCC1CCOCC1 (centres undefined)	14%	-9	0.4	0.3	-1.9	-5	-5
COc1cc(NCc2ccccc2)c2ncn(C(C)C)c2c1	/	2	/	5.8	2.3	98*	/
CC(C)CCc1noc(CN(CC2CCC2)CC2CCCO2)n1 (centres undefined)	25%	10	-0.1	-1.2	0.0	-2	-6
CC(C)CN(C(=O)c1cc2ccccc2o1)c1c(N)n(CC(C)C)c(=O)[nH]c1=O	26%	-4	-2.1	-1.2	-1.7	-23	-4
CCOc1ccc2c(c1)N(C(=O)CN1C(=O)CCC1=O)C(C)(C)C=C2C	2%	-4	-1.3	2.0	-1.1	1	-10
C/C=C/c1c(F)c(F)c(Oc2ccc(C(=O)O)cc2)c(F)c1F	1%	0	5.7	/	-2.3	/	23
O=S(=O)(NCCSCc1ccc(Cl)c(Cl)c1)c1ccc2c(c1)OCCO2	2%	-14	-1.0	4.2	0.4	-4	1
COc1cc(SC)ccc1C(=O)NCCCOC(C)C	2%	4	-3.9	-1.2	0.0	-6	14
O=C(Nc1sc2c(c1C(=O)O)CCCCC2)c1cccnc1	/	7	-0.1	-1.9	-2.2	-6	7
CC[N+](CC)(CC)CCC(O)(c1ccccc1)C1CCCCC1 (centres undefined)	/	6	/	-0.4	1.3	/	/
O=C(Nc1nnc(C(F)(F)F)s1)c1cccnc1	28%	1	2.2	-4.2	2.6	49	25
COc1cc(C(=O)Nc2ccccc2N2CCOCC2)ccc1OCc1c(C)noc1C	4%	-5	2.4	1.7	-0.5	-5	0
CC(C)n1cnnc1SCC(=O)Nc1cccnc1Cl	/	0	/	-1.4	-3.2	-13	/
Nn1cnnc1SCC(=O)N1CCc2ccccc2C1	/	-3	/	1.3	4.5	/	/
Oc1cccc(C2c3[nH]c4ccccc4c3CCN2Cc2ccc3c(c2)CCO3)c1 (centres undefined)	4%	9	13	-4.8	3.2	-4	8
CCOC(=O)c1c(NC(=O)CN2CCCCC2)sc2c1CCC(C=O)=C2Cl	7%	-11	4.3	-4.4	2.7	-5	2
CCOC(=O)c1nc(N)c(=O)n(-c2ccccc2)n1	-1%	-1	-5.3	8.3	-1.8	-13	-2
O=C(N/N=C\c1cc(Br)c(Br)o1)C1COc2ccccc2O1 (centres undefined)	28%	7	-5.7	-13	1.6	-4	-27
O=S(=O)(c1ccc(Cl)cc1)N1CCCN(c2ccc(C(F)(F)F)cn2)CC1	/	-2	-0.3	0.9	4.3	-15	-1
O=C(c1sccc1-c1ccccc1)N1CCN(S(=O)(=O)c2ccccc2)CC1	6%	11	0.9	0.9	1.6	3	1
O=C(Cn1ccc2ccccc2c1=O)NCCC(=O)N1CCN(C(=O)c2ccco2)CC1	/	3	/	5.7	-5.2	-6	/
COc1ccc(N2CCN(C(=O)CCC(=O)N3CCOc4ccc(Cl)cc43)CC2)cc1	/	-2	3.6	-1.7	0.0	69	7
COC(=O)c1cc2sc(Cl)cc2n1CC(=O)Nc1cccc(SC)c1	-2%	24	-2.2	0.4	4.5	-3	-7
CC(C)(C)c1cc(Cc2ccccc2)[nH]n1	0%	-4	0.0	1.9	-3.1	-4	-32
CCCCCCSc1nc2c(c(=O)[nH]c(=O)n2C)n1C	-3%	-2	-2.8	-8.3	12	-14	6
CC1CC(C)CN(S(=O)(=O)c2cccc3nsnc23)C1 (centres undefined)	-4%	9	-1.4	2.1	3.0	-6	29
O=S(=O)(c1ccccc1)N1CN(Cc2ccc(F)cc2)c2nc3ccccc3nc21	-3%	-1	-3.3	-0.9	1.9	-9	-12
Cc1ccc(NC(=O)Nc2cccc(C)n2)cc1	-6%	0	-1.2	-0.4	3.1	-1	-4
COC(=O)C1(S(=O)(=O)c2ccc(C)cc2)CCOCC1	2%	-4	0.2	-0.3	5.1	-6	0

Printed as active in Beta2AR agonist, among the entries above:
Compound	Vif A3G	Beta2AR agonist	RanGTP-Imp inh	LANA-H2B inh	HNF4A DNA FP	ALR H2O2 inh
CCC(C)(C)NC(=O)C(c1ccc(OC)cc1)N(Cc1ccccc1)C(=O)CCC(=O)Nc1cc(C)on1 (centres undefined)	/	62*	1.8	8.4	3.3	/

(next part)
SMILES	Vif A3G	Beta2AR agonist	RanGTP-Imp inh	LANA-H2B inh	HNF4A DNA FP	ALR H2O2 inh	Calb FLC
CC(=O)C1=C(C)NC(=O)NC1/C=C/c1ccccc1 (centres undefined)	-6%	3	5.5	3.6	-5.7	-10	8
CCOC(=O)C1=C(CSc2nc(CC)c(C)cc2C#N)OC(N)=C(C#N)C1c1ccc(OC)cc1 (centres undefined)	/	-10	-1.0	-1.9	5.9	/	6
CC1SCC(=O)N(CC(=O)Nc2ccc3c(c2)OCCO3)C1=O (centres undefined)	-6%	1	-1.4	1.4	0.4	/	-33
COCCN(C(=O)COC(=O)/C=C/c1ccc2ccccc2n1)c1c(N)n(Cc2ccccc2)c(=O)[nH]c1=O	5%	2	5.2	1.3	2.2	7	9
Cc1sc2nc(CN3CCOCC3)nc(NS(=O)(=O)c3cc(Cl)ccc3Cl)c2c1C	-9%	12	/	-6.1	3.6	2	/
CCn1c(C)c(CCC(=O)O)c(=O)n2nc(-c3ccccc3OC)cc12	24%	-1	-1.5	0.6	1.3	-1	-4
Cc1cc(C)c(C(=O)/C=C/c2cccs2)c(=O)[nH]1	1%	-1	5.3	2.4	-1.0	-3	22
CCOC(=O)CC1C(=O)NCCN1C(=O)Nc1ccccc1 (centres undefined)	1%	-10	3.9	-0.2	1.0	-4	-1
CCOc1ccc(NC(=O)CCN2C(=O)c3ccccc3C2=O)cc1	/	-4	?	2.1	0.8	/	3
C[C@H](NC(=O)[C@@H]1CSC2c3ccccc3C(=O)N21)C(=O)NC1CCCCC1 (some centres undefined)	5%	1	0.9	-5.4	-6.0	5	6
COc1ccc2c3c([nH]c2c1)C(C)N(C(C)=O)CC3 (centres undefined)	3%	4	0.7	-1.9	-3.5	97*	1

One compound at a time, from the list above. Values in the order: Vif A3G	Beta2AR agonist	RanGTP-Imp inh	LANA-H2B inh	HNF4A DNA FP	ALR H2O2 inh	Calb FLC
`COC/C=C/C1=CC2=CC(=O)C(C)(OC(=O)c3cnc4ccccc4n3)C(=O)C2=CN1CC(C)C` (centres undefined) reads /	-2	?	0.8	-3.7	/	26
`Cc1ccc(C(=O)NNC(=O)CSc2nnc(-c3ccccc3)n2Cc2ccccc2)cc1` reads 16%	-3	3.8	-0.9	-2.7	/	-3
`COc1ccc2c3c([nH]c2c1)C(C)N(C(C)=O)CC3` (centres undefined) reads 3%	4	0.7	-1.9	-3.5	97*	1
`COC(=O)c1cc2sc(Cl)cc2n1CC(=O)Nc1cccc(SC)c1` reads -2%	24	-2.2	0.4	4.5	-3	-7
`CC(C)n1cnnc1SCC(=O)Nc1cccnc1Cl` reads /	0	/	-1.4	-3.2	-13	/
